# Rango dissoc inh = qHTS Assay for Inhibitors of RanGTP induced Rango (Ran-regulated importin-beta cargo) - Importin beta complex dissociation. Snurportin-1 (Homo sapiens) + GTP-binding nuclear protein Ran (Homo sapiens) + Importin …. Biochemical FRET Rango-importin beta, RanGTP-induced dissociation. AID 540253, 2011. 0.071% of 340,000 active. Potency, µM (series often up to 46.1 µM), for inactives: top-dose activity change, negative = inhibition; active means falling FRET ratio curve, often poorly fitted, with flat reads before Ran was added; inconclusive means other falling curves, or compound fluorescence or quenching; inactive means flat or rising ratio curve;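 further: potency means the concentration at half of the fitted maximal effect; % of control where 0% means no effect; nearly all actives have a fitted effect of over 45% in size; -100% = wells without RanGTP and RCC1; the record marks most hits as doubtful in a second field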
#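 Rango (0.1 uM)–importin beta (0.25 uM) complex; RanGTP-RCC1 trigger; 45 min RT; CFP/YFP FRET read.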
# Rango complex inh = qHTS Assay for Inhibitors of Rango (Ran-regulated importin-beta cargo) - Importin beta complex formation; Importin subunit beta-1 (Homo sapiens), Q14974; Rango CFP/YFP FRET sensor + importin beta, 45 min; Potency, µM (highest dose often 92.2 µM), for the others: at the highest dose inhibition of complex formation; 0.031% of 340,000 active; AID 540263, 2011; active = rising FRET ratio curve, often small or poorly fitted; inconclusive = mostly compound fluorescence or quenching in the first reads; inactive = flat curves in all reads;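 further: potency means the concentration at half of the fitted maximal effect; 0% = DMSO wells and 100% = buffer wells lacking importin beta; nearly all actives have a fitted effect of over 15% in size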
# Target sequence (Q14974 whole entry, looked up): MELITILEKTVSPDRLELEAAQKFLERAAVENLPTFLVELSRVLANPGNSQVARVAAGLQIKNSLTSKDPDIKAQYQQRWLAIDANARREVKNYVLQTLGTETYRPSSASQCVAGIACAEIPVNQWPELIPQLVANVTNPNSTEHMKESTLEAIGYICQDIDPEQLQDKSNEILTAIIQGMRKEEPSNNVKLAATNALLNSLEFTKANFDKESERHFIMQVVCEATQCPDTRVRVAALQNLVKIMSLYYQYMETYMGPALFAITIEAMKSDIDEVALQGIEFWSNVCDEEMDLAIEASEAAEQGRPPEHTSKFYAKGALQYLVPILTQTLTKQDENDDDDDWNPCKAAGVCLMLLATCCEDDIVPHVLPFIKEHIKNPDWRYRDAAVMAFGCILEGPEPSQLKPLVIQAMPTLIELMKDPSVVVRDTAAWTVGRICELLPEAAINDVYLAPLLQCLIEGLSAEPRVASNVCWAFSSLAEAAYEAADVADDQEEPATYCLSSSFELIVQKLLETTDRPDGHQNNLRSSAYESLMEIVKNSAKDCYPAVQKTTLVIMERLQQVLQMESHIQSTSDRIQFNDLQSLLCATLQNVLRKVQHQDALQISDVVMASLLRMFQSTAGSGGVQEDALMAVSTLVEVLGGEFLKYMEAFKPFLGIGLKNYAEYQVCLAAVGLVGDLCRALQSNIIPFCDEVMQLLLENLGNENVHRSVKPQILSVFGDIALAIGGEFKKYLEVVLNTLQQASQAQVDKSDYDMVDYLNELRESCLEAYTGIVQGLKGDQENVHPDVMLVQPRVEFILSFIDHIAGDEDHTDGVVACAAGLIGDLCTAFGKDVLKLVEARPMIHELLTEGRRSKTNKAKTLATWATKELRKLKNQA
#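 Inhibition scored from the CFP 486 nm/YFP 530 nm FRET ratio 45 min after adding 0.125 microM importin beta to 50 nM Rango biosensor preincubated 5 min with compound (room temperature, PBS with DTT, Tween-20, BSA). No-importin wells as positive control.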
# miR-21 reporter = qHTS Assay for Modulators of miRNAs and/orActivators of miR-21; HeLa miR-21 FLuc reporter, luciferase, 48 h; Potency, µM (titrated, usually from 38.3 µM), inactives show at the highest dose reporter change, positive = more light; 340,000 tested, under 10 active; AID 2288, 2010; active = well fitted rising curve with a large enough effect; inconclusive = small, poorly fitted or top-dose-only effect; inactive = no such curve, though single readings can be large or run the other way;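 further: % of control where 0% means no effect; miR-21 action dims this reporter so a rising signal means less miR-21 action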
#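 Compounds were titrated across several concentrations (up to approximately 40 uM) and incubated 48 hours with HeLa miR-21-FLuc reporter cells (miR-21 target sequence downstream of FLuc, endogenous miR-21). Readout was firefly luciferase luminescence after lytic detection reagent.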
# GLA inh pH 4.5 = qHTS Assay for Inhibitors of Human alpha-Galactosidase at pH 4.5; purified enzyme, 4-MU-alpha-Gal fluorescence, pH 4.5; AID 1467, 2008; 230,000 tested, under 10 active; Alpha-galactosidase A (Homo sapiens), P06280; activity change, negative = inhibition, % at 105 µM; inconclusive = small, poorly fitted or top-dose-only inhibition, or a rising curve; inactive = flat fitted curve, though single readings scatter; no compound was filed as active;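 further: 0% = full activity with enzyme and -100% = basal without enzyme; dose as in the result columns while the protocol names 77 µM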
# Numbers without * were called inactive; ? = inconclusive; . = not tested or not shown; & = joins results of further samples. This is a subset; rates above refer to the full screens.
smiles | Rango dissoc inh | Rango complex inh | miR-21 reporter | GLA inh pH 4.5
Cc1cc(C)cc(N(CC(=O)NCc2cccnc2)S(C)(=O)=O)c1 | -12% | -0.4% | -1% | 10
CC(C)CNC(=S)N1CCC(NC(=O)C23CC4CC(CC(C4)C2)C3)CC1 | -4% | -5.4% | -2% | 9
CC(C)(C)OC(=O)Nc1ncnc2c1ncn2C1OC(CO)C2OC(C)(C)OC21 (stereo not given) | 11% | 2.1% | 2% | -2
NS(=O)(=O)c1ccc(Oc2ccc(S(N)(=O)=O)cc2)cc1 | 0% | 0.2% | 0% | -15
O=S(=O)(c1ccc2ccccc2c1)N1CCC(c2nc(-c3ccncc3)no2)CC1 | -18% | 2.3% | -8% | -20
O=C(N/N=C/c1coc2ccccc2c1=O)c1cc2ccccc2o1 | -20% | 0.4% | -11% | 2
N#CCCNc1c(Cl)cc(Cl)cc1C(=O)O | 8% | -4.5% | -11% | -7
CC(=O)N1c2ccc(S(=O)(=O)N3c4ccccc4CC3C)cc2CC1C (stereo not given) | -2% | 2.9% | 8% | .
COc1ccc(/C=C(\NC(=O)c2ccc(OC)cc2)C(=O)NC(CCSC)C(=O)O)cc1 (stereo not given) | -4% | -0.8% | -7% | 4
O=c1c2cccc3c2c(nn1-c1ccccc1)-c1ccccc1-3 | 0% | -7.5% | -7% | 3
CN1CCN(Cc2ccc(-c3ccc(Cl)cc3)o2)CC1 | -4% | -0.3% | -19% | -4
CN1OC(Cn2cc(C#N)c(=O)n(C)c2=O)CC1c1ccccc1 (stereo not given) | -2% | -0.4% | 1% | 0
O=C(O)[C@H]1CCCN1S(=O)(=O)c1cccc2cccnc12 | -3% | 0.1% | . | .
O=[N+]([O-])c1cccc(/C=N/n2c(C3CCCCC3)n[nH]c2=S)c1 | 17% | -0.2% | -13% | 3
Cc1c(C(=O)NN)sc(=S)n1C | -5% | 8.0% | 1% | -9
Cc1cc(C(=O)NCc2cccc(Cl)c2)c2ccccc2n1 | -9% | 0.2% | 4% | .
CCc1nnc(NC(=O)C(NC(=O)c2ccccc2Cl)C(C)C)s1 (stereo not given) | 2% | 3.1% | -2% | 3
COc1cccc(CN2CCCC(C(=O)N3CCCCC3)C2)c1 (stereo not given) | -7% | 2.9% | 2% | .
Cc1ccc(C(=O)Nc2ccccc2C(=O)O)cc1S(=O)(=O)Nc1ccc(Br)cc1 | 8% | -1.7% | . | .
Fc1cccc(F)c1CSc1nc2ccccc2[nH]1 | -7% | -1.7% | -39% | 9

# Continued.
smiles | Rango dissoc inh | Rango complex inh | miR-21 reporter | GLA inh pH 4.5
O=C(c1ccccc1Br)N(Cc1ccccc1)c1ccccc1 | 19% | -3.9% | 21% | .
CCc1cccc(C)c1NC(=O)C1C2CCC(O2)C1C(=O)O (stereo not given) | 4% | -2.1% | -4% | 3
COc1cc(OC)c(NS(=O)(=O)c2cccc(C(=O)OCC(=O)NCC3CCCO3)c2)cc1Cl (stereo not given) | 3% | -1.9% | 3% | -10
Cc1onc(-c2ccccc2)c1-c1nnc(CN2CCN(S(=O)(=O)c3ccccc3)CC2)o1 | 5% | 0.6% | . | .
O=C(Nc1ccccc1)c1ccc(CSc2ncccn2)cc1 | 15% | 4.9% | -34% | 10
O=C(NCc1ccco1)c1ccc(NS(=O)(=O)c2cccc([N+](=O)[O-])c2)cc1 | -11% | -2.4% | 0% | -1
COc1ccc(/C=N/NC(=O)c2ccc(COc3ccccc3Cl)o2)cc1 | -15% | -2.2% | -21% | 4
Clc1ccc(CSc2ccc(-c3cccnc3)nn2)cc1 | -8% | -0.1% | -17% | 1
CN(C)c1oc(-c2cccs2)nc1C#N | 35% | 5.8% | -15% | ?
O=C1c2ccccc2C(=O)N1Cc1nc(-c2ccccc2)no1 | -6% | -3.5% | -8% | -3
Nc1nc(NCCCN2CCOCC2)nc(Nc2ccccc2F)c1[N+](=O)[O-] | 2% | ? | -10% | -5
CC(C)(C)c1cc[n+](-c2[nH]c(=O)sc2/C=N/N=C(\[O-])c2cccnc2)cc1 | -4% | 0.7% | 0% | .
CC(C)C(c1nnnn1Cc1ccc(F)cc1)N1CCN(C2CCCCC2)CC1 (stereo not given) | -4% | -1.6% | -2% | -1
Cc1ccc(C(=S)N2CCN(Cc3ccccc3)CC2)cc1 | 10% | -2.4% | -1% | -8
Cc1cc(C)n(-c2ccc(C(=O)O)cc2)n1 | 23% | -0.4% | 0% | -3
Cc1cc(C)n(CC(O)COc2ccccc2C(=O)Nc2ccccc2)n1 (stereo not given) | -4% | -2.2% | 7% | 4
CCOC(=O)C1CCN(C(=O)C2CCN(c3nc4ccc(OC)cc4s3)CC2)CC1 | 1% | 1.9% | 2% | 7
CCOC(=O)CNC(=O)C(=O)c1c(O)[nH]c2ccccc12 | -10% | 5.2% | -6% | -8
COc1cc(OC)cc(C(=O)Nc2ccc(C(=O)c3ccncc3)cc2)c1 | -7% | 4.3% | 7% | .
CC(=O)NC1CC2CCCC(C1)N2C(=O)Nc1ccccc1 (stereo not given) | -11% | -3.3% | -3% | 5

# Going on with the list.
smiles | Rango dissoc inh | Rango complex inh | miR-21 reporter | GLA inh pH 4.5
Cc1ccc(S(=O)(=O)c2nc(-c3ccc(F)cc3)oc2SCC(N)=O)cc1 | -18% | 3.1% | -8% | -4
Cc1noc(C)c1C(=O)N1CCCC1 | -14% | -3.7% | -1% | 2
N#Cc1c(N)nc(-c2ccccc2)nc1-c1ccccc1 | -4% | ? | 1% | 5
Oc1ccc2ccccc2c1N=Nc1ccccn1 | 10% | -0.5% | 21% | -4
CCOC(=O)c1nccnc1C(=O)Nc1cccc(C(F)(F)F)c1 | 11% | -2.7% | 1% | 1
Cc1cc(C)cc(NC(=S)N2CCN(Cc3ccccc3)CC2)c1 | -7% | -2.1% | 2% | 0
Cc1csc(SCC(=O)O)n1 | 33% | 0.6% | -2% | 3
COc1ccc(OC)c(-c2cc(C(=O)N3CCN(c4ccccc4)CC3)no2)c1 | 19% | -1.9% | -23% | 0
CSc1ccccc1C(=O)N1CCCC(CNC(=O)c2ccc(F)cc2)C1 (stereo not given) | -11% | 1.7% | -3% | .
Cc1cccc(NC(=O)CSCC(=O)NCc2cccc(C(F)(F)F)c2)c1 | -6% | -5.9% | 9% | .
CCn1c(=O)cc(SCC(=O)NCc2ccccn2)c2ccccc21 | 0% | 0.0% | -3% | -6
CCN(CCO)Cc1csc2c(Br)cccc12 | -2% | 3.7% | -3% | 6
CCCOc1ccc(N2C(=O)CC(N(C(=O)c3ccco3)c3ccc(OCCC)cc3)C2=O)cc1 (stereo not given) | 4% | 0.7% | 1% | -5
O=C1Cc2c([nH]c3ccc(Br)cc23)-c2ccccc2N1 | 2% | 1.7% | . | -5&-6
Cc1nn(-c2ccccc2)c(C)c1/C=N/n1c(-c2ccc(Cl)cc2)n[nH]c1=S | 15% | -0.2% | -4% | 5
c1ccc2c(c1)ncn2CCn1cnc2ccccc21 | 2% | 0.3% | -3% | 6
C/C(=N/NC(=O)c1nnn(-c2nonc2N)c1-c1ccccc1)c1ccc2c(c1)OCO2 | 22% | ? | -3% | .
COc1cccc(NC(=O)c2cc(=O)c3ccccc3o2)c1 | -9% | -0.6% | -33% | .
COc1ccc(CCN(C)C(=O)c2cc(-c3ccccc3)nc3ccccc23)cc1OC | 3% | -0.9% | 1% | .
O=C(CC12CC3CC(CC(C3)C1)C2)Nc1ccc(C(=O)O)cc1 | 30% | 0.8% | -4% | .

# (list continues)
smiles | Rango dissoc inh | Rango complex inh | miR-21 reporter | GLA inh pH 4.5
O=c1n(-c2ccccc2)c(=O)n(Cc2ccccn2)n1Cc1ccccn1 | 11% | -4.3% | 1% | 8
Cc1ccc(C)c(OCCNc2ncccc2[N+](=O)[O-])c1 | 1% | -3.8% | -16% | .
O=S(=O)([O-])C(c1ccccc1)[n+]1ccccc1 (stereo not given) | 0% | 0.6% | . | .
N#CC1=C(N)Oc2cc(N)ccc2C1c1ccsc1 (stereo not given) | ? | ? | -1% | -1
O=C(COC(=O)C12CC3CC(CC(O)(C3)C1)C2)Nc1cccc(Br)c1 | -20% | 0.8% | . | .
CC(C)OC(=O)c1nnc(Cc2ccc(F)cc2)o1 | 13% | 0.8% | 0% | 0
c1ccc(-c2cn(-c3ccccc3)c3ncnc(NCCCN4CCOCC4)c23)cc1 | -3% | -4.2% | 7% | -21
O=[N+]([O-])c1cc2c(c(CSc3ncccn3)c1)OCOC2 | 9% | 2.0% | -55% | -27
CNC(C)C#Cc1ccc2oc3cc(C)c(C)cc3c(=O)c2c1 (stereo not given) | 4% | -0.6% | . | .
Cc1ccc(C(=O)N2CCC3(CC2)Oc2ccc(F)cc2C(=O)C32CC(c3ccc(Cl)cc3)=NO2)s1 (stereo not given) | -28% | -0.7% | -1% | 1
Cc1ccc(S(=O)(=O)NC2(C(F)(F)F)NC(=O)N(c3ccc(F)cc3)C2=O)cc1 (stereo not given) | -12% | -0.4% | 1%&3% | .
NC(=O)NC(Cc1ccccc1)C(=O)Nc1ccc(S(N)(=O)=O)cc1 (stereo not given) | 11% | -0.6% | -2% | 4
CCNc1nc2[nH]c(=O)c3c(c2s1)OC(N)=C(C#N)C3c1ccc(C)cc1 (stereo not given) | ? | ? | -8% | 6
COC(=O)CSc1nc(NC#N)nc(NC(C)C)n1 | 0% | 0.2% | 0% | 6
CCN(CC#CCC(O)(c1ccccc1)C1CCCC1)C(C)C (stereo not given) | 0% | -1.0% | -6% | 9
CC(OC(=O)c1ccc(Cl)c(S(N)(=O)=O)c1)C(=O)NCC1CCCCC1 (stereo not given) | -11% | 3.2% | . | .
O=C(NCCc1ccccc1)C1CCN(C2CCN(Cc3ccc(CO)o3)CC2)CC1 | 1% | -2.3% | -1% | 4
CC1(C)CCC[C@]2(C)[C@H]3CC(=O)O[C@]3(C)CC[C@@H]12 | -1% | -1.4% | -5% | .
O=c1ccc2[n+]([O-])c3ccc(O)cc3oc-2c1 | 2% | 0.7% | 13% | -2
CSc1ccc(CN(C)C(=O)C2CCN(C(=O)Nc3ccccc3)CC2)cc1 | 2% | -0.4% | . | .

# (cont.)
smiles | Rango dissoc inh | Rango complex inh | miR-21 reporter | GLA inh pH 4.5
CC(C)C[C@@H](CO)NS(=O)(=O)c1c(F)cccc1F | 23% | -0.2% | . | .
O=C(c1ccncc1)c1ccc(NS(=O)(=O)c2ccc(Br)s2)cc1 | -11% | 1.2% | -13% | -7
COCCCn1c(=O)c2sccc2n2c(CCCC(=O)NCc3cccc(OC)c3)nnc12 | 15% | 0.2% | 1%&-1% | .
Cc1cc(=O)[nH]c(SCc2nc3ccccc3s2)n1 | -3% | 2.1% | -28% | 8
CCOc1cc(C2C3=C(CCCC3=O)NC3=C2C(=O)CCC3)ccc1OCCO | -15% | -5.8% | 2% | -10
COc1ccc(/C=C/C(=O)NCCNC(=O)c2ccccc2)cc1OC | 1% | 0.3% | -7% | -4
O=C(Nc1cccc(Cl)c1)C1=Cc2cc(Cl)ccc2OC1 | -9% | -3.6% | -6% | 5
O=C(O)c1ccc2cc[nH]c2c1 | 0% | 0.8% | -1% | -5
CCC(Sc1nc2ccccc2[nH]1)C(=O)Nc1cc(C)on1 (stereo not given) | -5% | 0.0% | -3% | -5
CCOC(=O)c1c(C)[nH]c(C)c1C(=O)CSc1nc2ccccc2n1CC | 5% | -3.3% | 1% | -7
COc1ccc(CCNC(=O)CSc2nc(C)nc3c2c(=O)n(C)c(=O)n3C)cc1OC | 2% | -1.0% | 3% | 1

# One compound at a time, as listed above. Order of screens: Rango dissoc inh | Rango complex inh | miR-21 reporter | GLA inh pH 4.5
# Entry for `Cc1cc(=O)[nH]c(SCc2nc3ccccc3s2)n1` : -3% | 2.1% | -28% | 8
# Entry for `COCCCn1c(=O)c2sccc2n2c(CCCC(=O)NCc3cccc(OC)c3)nnc12` : 15% | 0.2% | 1%&-1% | .
# Entry for `CCOc1cc(C2C3=C(CCCC3=O)NC3=C2C(=O)CCC3)ccc1OCCO` : -15% | -5.8% | 2% | -10
# Entry for `CCC(Sc1nc2ccccc2[nH]1)C(=O)Nc1cc(C)on1` (stereo not given) : -5% | 0.0% | -3% | -5

# Source: PubChem (National Center for Advancing Translational Sciences (NCATS))
